High-throughput results from PubChem.
Polio RdRp inh = poliovirus RNA polymerase inhibition. % elongation, % (compound at 16.7 µg/mL). 150,000 compounds, 0.66% hits. poliovirus polymerase elongation, fluorescence polarization; stronger effect = lower value; in the data active = % elongation below about 90%; note: some results filed as inactive read as strong as hits
Target sequence (P03300 1749-2209 limits assumed): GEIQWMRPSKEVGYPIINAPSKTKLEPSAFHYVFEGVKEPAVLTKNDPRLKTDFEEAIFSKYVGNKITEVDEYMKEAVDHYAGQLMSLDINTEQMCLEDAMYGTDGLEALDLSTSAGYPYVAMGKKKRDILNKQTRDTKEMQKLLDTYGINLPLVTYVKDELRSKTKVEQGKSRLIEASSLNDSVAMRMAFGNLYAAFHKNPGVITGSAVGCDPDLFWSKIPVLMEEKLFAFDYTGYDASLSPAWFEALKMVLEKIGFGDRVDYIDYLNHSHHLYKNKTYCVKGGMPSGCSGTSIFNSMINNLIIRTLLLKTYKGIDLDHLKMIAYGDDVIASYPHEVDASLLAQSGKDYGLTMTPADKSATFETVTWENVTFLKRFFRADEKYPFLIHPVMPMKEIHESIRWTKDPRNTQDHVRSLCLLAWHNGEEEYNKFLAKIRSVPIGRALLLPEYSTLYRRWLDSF
Mtb MenB inh = Mtb MenB enzyme inhibition | inhibition, %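 (about 12 µg/mL by stock and volumes)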 | MenB enzyme assay, absorbance read-out; some hits fall short of the stated cut | 100,000 compounds, 0.43% hits | P9WNP5;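 active = mean of two replicates above 30%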;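 note: 0% = no compound and 100% = wells with inactive enzyme; the first replicate is given; strong numbers were not always called active; inactives centre near -10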
Target sequence (P9WNP5 whole entry, looked up): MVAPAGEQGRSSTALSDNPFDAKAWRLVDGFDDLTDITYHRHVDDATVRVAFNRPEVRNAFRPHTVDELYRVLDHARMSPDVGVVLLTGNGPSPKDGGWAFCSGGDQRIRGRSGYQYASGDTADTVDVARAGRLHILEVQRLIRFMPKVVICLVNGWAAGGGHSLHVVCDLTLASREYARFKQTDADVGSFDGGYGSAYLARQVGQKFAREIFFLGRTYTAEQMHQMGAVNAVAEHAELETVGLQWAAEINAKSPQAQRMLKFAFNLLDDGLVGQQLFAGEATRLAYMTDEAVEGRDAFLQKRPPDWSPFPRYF
Mtb MbtI inh = inhibitors of Mycobacterium tuberculosis siderophore enzyme MbtI; P9WFX0; purified MbtI enzyme, fluorescence intensity read-out; inhibition, %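 (about 17 µg/mL by stock and volumes)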; 100,000 compounds, 0.89% hits; AID 493033;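 active = above 50% in both replicates, above 80% if mildly self-fluorescent; inactive = the rest, strongly fluorescent compounds included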;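 note: 0% = mean of negative and 100% = mean of positive controls; one replicate is shown; some compounds called inactive have numbers as strong as hits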
Polio RdRp inh intensity = recorded beside Polio RdRp inh, whose call it bears; % elongation; measured here: total intensity read-out; formula for this scale not given here;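 total fluorescence in place of polarization; lower means less elongation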
Active calls of the source: *; i = inactive; x = not tested or not shown.

Every second line gives: Polio RdRp inh intensity, Mtb MenB inh, Polio RdRp inh, Mtb MbtI inh
O=C(Cc1ccccc1)NC1CCSc2ccccc21 (configuration not stated)
    x, -5.4, x, 2.5
COc1ccc(C2(C(=O)N3CCOCC3)CCCC2)cc1
    108.0, -1.6, 105.0, x
CCN1c2ccccc2-c2nc3ccccc3n2C1c1ccco1 (configuration not stated)
    97.0, -21.7, 101.0, 116.7
Cc1ccc(/C=C/C(=O)OCc2cc(Cl)cc3c2OCOC3)o1
    115.0, -8.7, 103.0, i
CN(c1ccc(C(=O)N2CCN(c3ccc(F)cc3)CC2)cc1)S(C)(=O)=O
    103.0, 6.3, 103.0, -3.8
Cc1ccc(Cl)cc1NC(=O)CC1SC(N)=NC1=O (configuration not stated)
    99.0, -65.5, 105.0, 1.1
COc1cccc(-c2csc3nc[nH]c(=O)c23)c1
    100.0, -4.6, 102.0, x
O=C(CSc1n[nH]c(=O)n1-c1ccccc1)c1ccc2c(c1)OCCO2
    105.0, 9.5, 103.0, -3.5
CN(C)C(=O)Oc1ccc[n+](C)c1
    100.0, -9.2, 100.0, -11.2
O=S1(=O)NC(=NCC(c2ccc(F)cc2)N2CCOCC2)c2ccccc21 (configuration not stated)
    106.0, -23.7, 103.0, 10.9
CCCCC1C(=O)NC(=S)NC1=O
    98.0, -18.5, 98.0, 5.0
CCn1c(=O)n(CC(=O)N(C)Cc2ccccc2)c(=O)c2ccccc21
    99.0, -20.5, 103.0, 10.7
COC(=O)C1(C(=O)OC)C(C)(C)C1(C(=O)OC)C(=O)OC
    102.0, -52.6, 103.0, 4.9
O=C1NCCN1CCNS(=O)(=O)c1ccc(F)cc1
    110.0, 0.8, 104.0, x
CN1CCN(C(=O)CCCCl)CC1
    97.0, x, 100.0, -6.5
Cc1cc(C)cc(N2C(=O)CC(c3ccc4c(c3)OCO4)C3=C2CCCC3=O)c1 (configuration not stated)
    102.0, -56.5, 102.0, 6.8
Cn1c(=S)n(CN2CCC(C(N)=O)CC2)c2ccccc21
    102.0, 2.2, 98.0, 12.4
CC(C)NC(=O)Cn1ncn2c(cc3ccccc32)c1=O
    100.0, -5.3, 100.0, 16.5
CC(C)(Oc1ccc(Cl)cc1)C(=O)NCc1ccc2c(c1)OCO2
    98.0, x, 103.0, 2.9
Cc1ccc(-c2ccc(OCC(=O)NC3CCCC3)cc2)cc1
    106.0, 0.8, 101.0, x
Nc1cccc2ncccc12
    99.0, -3.4, 99.0, -16.0
Cc1nn(Cc2c(F)c(F)c(F)c(F)c2F)c(C)c1NC(=S)NCc1ccco1
    103.0, 7.8, 101.0, 0.9
CC(=O)N(c1ccc2oc3c(c2c1)CCCC3)S(=O)(=O)c1ccc(F)cc1
    102.0, -9.3, 102.0, 0.4
O=C(O)c1ccc(N2CCOc3ccccc32)s1
    104.0, 0.0, 103.0, 8.1
O=C(Cn1cnc2ccccc2c1=O)N1CCCc2ccccc21
    91.0, -29.3, 101.0, -5.0
CN(CCNc1nc(-c2ccccc2)no1)C1CCCCC1
    101.0, -21.1, 101.0, -23.6
O=C(O)c1cc2cc3ccccc3nc2s1
    101.0, -47.5, 100.0, 11.8
O=c1cc(NCc2ccccc2)[nH]nc1-c1ccccc1
    106.0, -13.4, 102.0, -5.5
Cc1ccc(Cn2c(=N)n(CC(=O)O)c3ccccc32)cc1
    95.0, -9.8, 99.0, -6.8
N#Cc1c(N)nc2c(sc3nc4c(cc32)CCC4)c1-c1ccc(Br)cc1
    129.0, -0.6, 112.0, x
Cn1c(S(=O)(=O)Cc2ccc(Br)cc2)nc2ccccc21
    99.0, -35.3, 102.0, -9.8
CC(O)(CN1CCOCC1)c1ccc(Br)cc1 (configuration not stated)
    100.0, x, 101.0, -8.2
CC(=O)Nc1cccc(NC(=O)N2CCOCC2)c1
    100.0, -13.9, 107.0, x
CCN1CCN(C2=NC(C(=O)Nc3ccccc3)CC(=O)N2)CC1 (configuration not stated)
    107.0, -85.3, 103.0, -7.9
Cc1c(CN(C)C)c2c(n1Cc1ccccc1)C(=O)c1ccc(Br)cc1-2
    96.0, -14.0, 101.0, -7.4
O=C1CC(c2ccccc2)CN1C(=O)c1cccnc1 (configuration not stated)
    105.0, -0.8, 98.0, -3.9
O=C(Nc1ccccc1)c1ccc(S(=O)(=O)N2CCCC2)cc1
    103.0, -25.6, 104.0, -1.0
COP(=O)(CC(=O)O)c1ccccc1 (configuration not stated)
    101.0, -16.8, 102.0, 8.4
Cc1cc2ncc(-c3ccnc(SCCS(=O)(=O)c4ccccc4)n3)c(C)n2n1
    109.0, 1.8, 100.0, 6.3
CCOc1ccc(NC(=O)CN2CCN(CC(=O)Nc3ccc(OCC)cc3)CC2)cc1
    104.0, 2.2, 102.0, -45.0
C=CCN(C1CCCCC1)S(=O)(=O)c1ccc2c(c1)oc(=O)n2C
    114.0, -16.8, 101.0, 7.0
O=c1[nH]c2ccccc2o1
    125.0, -11.8, 113.0, -8.1
O=C(COCc1cc(-c2ccco2)on1)N1CCCC1
    107.0, -8.4, 97.0, -7.0
CCOC(=O)[C@@H](CCc1ccccc1)NC(C)C(=O)N1CCC[C@@H]1C(=O)O (some centres not stated)
    100.0, -44.6, 101.0, -15.4
O=c1onc(-c2ccc(Cl)cc2)n1Cc1ccc(F)cc1
    102.0, -63.9, 105.0, -2.3
COc1ccc(C2CC(=O)N(C)C3=C2C(=O)CC(C)(C)C3)c(OC)c1 (configuration not stated)
    101.0, -12.8, 102.0, 7.5
COc1cc2c(cc1OC)C(C(=O)NC1CCCCCC1)C(c1cccs1)N(C)C2=O (configuration not stated)
    103.0, -17.3, 103.0, -4.0
CCCn1cnc2c(cnn2-c2ccccc2C)c1=O
    101.0, 16.6, 100.0, 1.6
S=c1n(CN2CCCCC2)nc(-c2ccccc2)n1-c1ccccc1
    103.0, -28.8, 101.0, x
CC(C)Cc1ccc(C(C)c2nc3ccccc3n2C)cc1 (configuration not stated)
    107.0, -26.5, 103.0, -6.4
c1ccc(Cc2nc3c4c5c(sc4ncn3n2)CCCC5)cc1
    110.0, -50.8, 105.0, -10.8
CN(CC(=O)Nc1cc(C(F)(F)F)ccc1N1CCOCC1)S(=O)(=O)c1ccc(Cl)cc1
    110.0, -6.7, 104.0, -12.5
C=CCNS(=O)(=O)c1cccc2cc(C(=O)O)c(O)cc12
    102.0, -1.5, 100.0, x
CC12CN3CN(C1)CC(c1ccccc1)(C3)C2=O
    103.0, 0.0, 102.0, 47.8
COc1ccc(C2CC(c3ccccc3)=NN2C(=O)CSc2nnc(-c3cccnc3)n2N)cc1 (configuration not stated)
    230.0, -17.3, 80.0, 0.4
CC(=O)N1CCC(N(Cc2cccnc2)C(=O)Nc2ccc(Cl)cc2)CC1
    104.0, 0.6, 103.0, 1.2
CCc1ccc(OCC(=O)OCC(=O)N2CCc3ccccc32)cc1
    108.0, x, 103.0, -6.2
C=CCNC(=O)c1cc(C)on1
    100.0, -16.9, 102.0, -10.7
CC1CCN(S(=O)(=O)c2ccc(C(=O)Oc3ccc4c(c3)OCO4)cc2)CC1
    98.0, 7.5, 105.0, 6.1
CCN(C(=O)c1ccco1)c1nc(CC(=O)Nc2ccc(Cl)cc2)cs1
    103.0, -13.3, 105.0, 1.6

Later entries.
Every second line gives: Polio RdRp inh intensity, Mtb MenB inh, Polio RdRp inh, Mtb MbtI inh
O=C(Nc1sc2c(c1C(=O)O)CCCC2)c1ccc(Br)cc1
    86.0*, -20.4, 85.0*, x
O=C1N/C(=C/c2ccccc2)C(=O)N1c1cccc(Cl)c1
    103.0, -14.0, 102.0, -8.6
CCCn1c(SCC(=O)Nc2cc(C)on2)nc2sc3c(c2c1=O)CCCC3
    99.0, 4.1, 104.0, 8.2
COC(=O)C1=CN(CC23CC4CC(CC(C4)C2)C3)C=C(C(=O)OC)C1c1ccc(F)cc1
    113.0, -12.0, 109.0, x
COc1ccc(CCNC(=O)CCN2C(=O)C(C)Oc3ccc(C)cc32)cc1OC (configuration not stated)
    100.0, 9.5, 99.0, 0.9
Cc1cccc(NC(=O)Cn2nnc(C(=O)NCc3cccs3)c2N)c1C
    101.0, -14.0, 104.0, -12.4
CC(O)c1nc2ccccc2n1CN1CCN(c2ccccc2)CC1 (configuration not stated)
    92.0, 0.5, 100.0, 14.8
CCN(CC)c1nc(SCC(=O)O)nc(N(CC)CC)n1
    104.0, -46.2, 102.0, -8.7
Cc1nnc(Oc2ccc(Cl)cc2Cl)c2ccccc12
    104.0, x, 101.0, 41.6
CN1CCC(OC(=O)Cc2ccc(Cl)cc2)CC1
    105.0, -31.6, 101.0, -4.7
COc1ccc(CCNC(C)C(=O)NC2(C#N)CCCCC2)cc1OC (configuration not stated)
    89.0, 14.9, 94.0, 6.5
CS(=O)(=O)c1ccc(-c2csc(-n3nccc3C(F)(F)F)n2)cc1
    112.0, -5.8, 105.0, -7.8
CN1CCN(c2ccc(CNS(=O)(=O)c3cccc4nonc34)cc2)CC1
    109.0, -9.6, 103.0, -10.4
COCCNC(=O)c1cccc(OC(C)C)c1
    105.0, -1.1, 102.0, -8.6
CN(c1ccc(Oc2ncnc3c2oc2ccccc23)cc1)S(=O)(=O)c1ccc(Cl)cc1
    113.0, -12.7, 106.0, -8.9
COC(=O)c1ccc(C2N=C(c3cccc(OC)c3)CC(c3ccccc3O)N2)cc1 (configuration not stated)
    106.0, -8.0, 105.0, 1.6
CCOC(=O)N1CCN(C(=O)c2cccn3c(=O)c4cc5ccccc5cc4nc23)CC1
    158.0, -9.5, 89.0, -2.3
S=C(c1ccc2c(c1)OCO2)N1CCCC1
    105.0, -14.8, 98.0, -0.7
O=C(COC(=O)c1ccc(S(=O)(=O)Nc2ccccc2)cc1)Nc1nnc(-c2ccccc2)o1
    122.0, -69.0, 117.0, 66.7
COc1ccc(CC(=O)Nc2ccc(N3CCOCC3)cc2)cc1S(=O)(=O)N1CCOCC1
    104.0, 2.2, 105.0, 5.7
CCn1cc(C(=O)Nc2ccccc2)c(=O)c2ccc(C)nc21
    101.0, -2.3, 101.0, -26.6
NCCN1CCCC1=O
    103.0, 28.2*, 105.0, -3.3
CCN(C(=O)Nc1cc(NC(=O)N(CC)C2CCCCC2)c(C)nc1C)C1CCCCC1
    96.0, 2.4, 94.0, 3.5
COc1ccccc1NC(=O)CSc1cc(C(F)(F)F)cc(C(F)(F)F)c1
    108.0, -8.9, 104.0, -1.6
Cc1cc(C(=O)NCc2ccc(N3CCOCC3)cc2)nn1C
    104.0, 11.9, 100.0, -1.9
N#Cc1ccccc1NC(=O)COC(=O)C1CCCCC1
    91.0, -43.5, 97.0, 0.0
Cn1c(=O)c2conc2n(C)c1=O
    95.0, -4.9, 101.0, 10.6
COC(=O)C1=CN(C2CC2)C=C(C(=O)OC)C1c1ccccc1
    102.0, -17.0, 103.0, -1.0
COc1ccccc1C/C(N)=N/OC(=O)c1ccccc1
    102.0, 9.3, 100.0, -7.9
O=C(C[n+]1cc(-c2ccccc2)n2c1CCC2)c1ccccc1
    106.0, x, 105.0, -10.8
O=C(NCc1cccnc1)NC1CCCCC1
    100.0, 6.5, 101.0, 4.6
N#CC1=C(N)Oc2c(c(=O)oc3ccccc23)C1
    103.0, 14.9, 102.0, -62.2
CN(C)c1ccc(C(=O)NC2CCSC2=O)cc1 (configuration not stated)
    103.0, 1.9, 102.0, 16.6
O=c1c2ccccc2nc(SCc2ccc(Cl)cc2)n1CC1COc2ccccc2O1 (configuration not stated)
    97.0, -8.5, 102.0, -6.2
CCn1c(=O)c(=O)n(CC)c2cc(N3CCCCC3)c(NC(=O)c3ccccc3)cc21
    x, -4.4, x, 22.1
O=C(N/N=C\c1cc(Cl)ccc1O)c1ccc(S(=O)(=O)N2CCCCC2)cc1
    104.0, -119.8, 100.0, -14.9
COc1ccc(Cn2c(=O)sc3ccccc32)cc1
    102.0, -44.8, 102.0, -9.3
O=C(OCc1nc2ccccc2s1)c1ccccc1
    104.0, -36.8, 105.0, -2.9
CCN(CC)S(=O)(=O)c1ccc(NC(=O)CSc2nc3ccccc3o2)cc1
    107.0, -10.1, 103.0, -87.1
O=C(NC1C2CC3CC(C2)CC1C3)C1CCCCC1 (configuration not stated)
    98.0, x, 101.0, -1.4
Cn1ncc(Br)c1-c1nc2ccccc2[nH]1
    109.0, -10.8, 102.0, x
CC1(C)CC2(CCO1)OC(=O)CC2C#N (configuration not stated)
    104.0, -70.3, 103.0, -9.6
